# CtBP-E1A blk – inhibitors of CtBP/E1A interaction. AlphaScreen GST-E1A/His-CtBP binding, 1536-well; hits give low values; control for the full effect not named in the record. activity change, % (concentration not given with the values). 0.49% of 340,000 active. AID 651724; in the data active means activity change below about -65%; inconclusive means about -30% to -65%; inactive means above about -30%; also: % is scaled to controls: 0 for no effect and ±100 for the full control effect
#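 AlphaScreen with 125 nM GST-E1A and 125 nM His-CtBP (5X stocks) in Tris pH 8.0, 300 mM NaCl, BSA, Tween 20, TCEP. Compounds preincubated 2 h at 37 deg C, then glutathione donor/nickel acceptor beads added for 1 h at 37 deg C in dark.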
# Six1-Eya2 blk – blocks human Six1 binding to Eya2; 0.56% of 360,000 active; AID 651725; activity change, % (test concentration not listed); AlphaScreen GST-Six1/His-Eya2 binding, biochemical; hits give low values; control for the full effect not named in the record; Q15475+O00167; in the data active = activity change below about -65%; inconclusive = about -30% to -65%; inactive = above about -30%; also: % is scaled to controls: 0 for no effect and ±100 for the full control effect; compound concentration not given in the record
#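 Homogeneous AlphaScreen proximity assay pairing GST-Six1 with His-tagged Eya2 (added as 5X mix: 250 nM and 500 nM) in 50 mM Tris pH 8.0, 300 mM NaCl, 1 mM TCEP. Glutathione donor and nickel acceptor beads; 1 h, 37 °C, dark.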
# D2 agonist – human D2 receptor agonism in beta-arrestin assay; DiscoveRx PathHunter D2 beta-arrestin, luminescence, 90 min; 100% = 57 uM dopamine signal; activation, % (test concentration not listed); 0.084% of 360,000 active; P14416; in the data active = activation above about 40%; inconclusive = about 15% to 40%; inactive = below about 15%; also: compound concentration not given in the record; the text of the record calls up to 30% inactive
# Target sequence (P14416 whole entry, looked up): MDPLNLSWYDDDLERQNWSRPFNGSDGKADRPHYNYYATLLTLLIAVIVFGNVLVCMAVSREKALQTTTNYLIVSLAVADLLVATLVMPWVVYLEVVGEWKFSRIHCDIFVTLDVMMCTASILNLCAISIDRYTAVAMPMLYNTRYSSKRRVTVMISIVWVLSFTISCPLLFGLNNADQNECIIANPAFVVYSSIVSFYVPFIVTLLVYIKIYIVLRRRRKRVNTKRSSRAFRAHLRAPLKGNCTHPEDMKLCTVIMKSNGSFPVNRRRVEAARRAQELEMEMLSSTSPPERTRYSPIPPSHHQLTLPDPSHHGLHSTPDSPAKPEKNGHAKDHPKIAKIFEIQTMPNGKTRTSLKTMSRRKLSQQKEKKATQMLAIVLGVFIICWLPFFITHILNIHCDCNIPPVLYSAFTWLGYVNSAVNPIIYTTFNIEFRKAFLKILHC
#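 Agonist mode: compounds alone added to overnight-plated D2 PathHunter cells for 90 min at 37 C, with 57 uM final dopamine (EC100) defining full response. Beta-arrestin recruitment detected by chemiluminescent reagent, read after 1 h at ambient temperature.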
# PINK1 modulator – modulators of PINK1 expression | PINK1 immunofluorescence, high-content cytometry, 24 h | Potency, µM (series often up to 76.6 µM), for inactives: at the top dose activation (PINK1 increase), most hits filed as activators | 0.2% of 410,000 active; active = well fitted activation curve with a large enough effect; inconclusive = small, poorly fitted or top-dose-only effect; inactive = flat fitted curve, though single readings scatter; cell line not stated here;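 also: potency is read from the fitted curve at half-maximal effect; % of control where 0% means no effect; nearly all actives have a fitted effect of over 65% in size; a mitochondrial uncoupler was the plate control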
#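 Measures PINK1 amount and localization on or inside mitochondria by immunofluorescence. Stable cells get compounds at 5 concentrations for 24 hours before fixation and staining; CCCP controls included.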
# TRPML1 agonist – agonists of human TRPML1 channel. TRPML1-expressing cells, Ca2+ dye fluorescence, FDSS; host cell line not named in the record; reference of the full effect not given here. activation, % (no concentration beside the values). 0.12% of 410,000 active; in the data active = activation above about 50%; inconclusive = about 30% to 50%; inactive = below about 30%; also: 0% is about no effect; the text of the record puts the active cut at 80%
# Target sequence (Q9GZU1 whole entry, looked up): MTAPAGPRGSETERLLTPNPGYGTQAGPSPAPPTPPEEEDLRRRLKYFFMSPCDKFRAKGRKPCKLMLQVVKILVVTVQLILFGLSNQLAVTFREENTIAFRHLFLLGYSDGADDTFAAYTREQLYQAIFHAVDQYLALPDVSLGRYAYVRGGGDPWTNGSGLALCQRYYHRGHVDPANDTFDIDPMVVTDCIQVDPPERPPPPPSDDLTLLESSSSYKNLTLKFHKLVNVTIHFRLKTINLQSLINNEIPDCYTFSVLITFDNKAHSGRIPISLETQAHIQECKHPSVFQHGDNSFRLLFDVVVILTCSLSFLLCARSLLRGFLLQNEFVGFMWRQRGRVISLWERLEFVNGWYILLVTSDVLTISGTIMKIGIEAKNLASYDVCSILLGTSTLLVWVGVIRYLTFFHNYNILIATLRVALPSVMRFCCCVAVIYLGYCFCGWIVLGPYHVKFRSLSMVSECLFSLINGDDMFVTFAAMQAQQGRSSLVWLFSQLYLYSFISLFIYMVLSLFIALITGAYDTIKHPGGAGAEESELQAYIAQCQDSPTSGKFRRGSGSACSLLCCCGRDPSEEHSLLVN
#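 Cells: TRPML1-DL, 1X Tet inducer, ~16 h at 37 degrees C/5% CO2. Dye: ABD Ca8 no-wash + quencher, 45-90 min RT. Read: 10 s baseline, compound add, 110 s agonist phase; 54-4 EC80 (4uM final), 110 s antagonist phase.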
# D2 potentiator – human D2 receptor positive allosteric modulation. P14416. DiscoveRx D2 beta-arrestin cells, luminescence, 90 min; 100% = 57 uM dopamine signal. potentiation, % (concentration not given with the values). 0.23% of 360,000 active; active = potentiation of 50% or more; inconclusive = 30% to 50%; inactive = 30% or less;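 also: compound concentration not given in the record; tested on top of an EC20 dose of dopamine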
#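 D2 cells co-treated with compound plus 50 nM dopamine (EC20) for 90 min at 37 deg C to detect potentiation. Beta-arrestin recruitment was read as enzyme-fragment luminescence after 1 h at ambient temperature. Full response was set by 57 uM dopamine.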
# The depositor's hits bear a star; ? = inconclusive; nt = no result given; & = joins results of further samples; [ ] = another dose, or the depositor's remark. No enrichment for hits; any-hit rate near 1.3%.
# A first look:
SMILES,CtBP-E1A blk,Six1-Eya2 blk,D2 agonist,PINK1 modulator,TRPML1 agonist,D2 potentiator
C=CCn1c(SCCOc2ccc(OC)cc2)nnc1C(C)NC(=O)Cc1ccc(OC)cc1 (stereo unspecified),1,-1,1.0,0.2%[38.3 µM],2.0,-7
O=C(CSc1ccccc1Cl)c1ccco1,-1,6,-0.6,2.3%,0.4,0
CCOC(=O)c1ccc(CSc2nnc(N)s2)cc1,-5,6,0.9,-1.3%,0.6,8
Cc1cc(C(=O)OCC(=O)NC(=O)NC(C)(C)C)c(C)o1,1,-6,-1.9,-0.3%,-1.1,-10
CC1CCCC(NC(=O)COC(=O)C2=COCCO2)C1C (stereo unspecified),-13,-7,-7.3,6.6%,-0.1,-7

# Results, from the start:
SMILES,CtBP-E1A blk,Six1-Eya2 blk,D2 agonist,PINK1 modulator,TRPML1 agonist,D2 potentiator
C=CCn1c(SCCOc2ccc(OC)cc2)nnc1C(C)NC(=O)Cc1ccc(OC)cc1 (stereo unspecified),1,-1,1.0,0.2%[38.3 µM],2.0,-7
O=C(CSc1ccccc1Cl)c1ccco1,-1,6,-0.6,2.3%,0.4,0
CCOC(=O)c1ccc(CSc2nnc(N)s2)cc1,-5,6,0.9,-1.3%,0.6,8
Cc1cc(C(=O)OCC(=O)NC(=O)NC(C)(C)C)c(C)o1,1,-6,-1.9,-0.3%,-1.1,-10
CC1CCCC(NC(=O)COC(=O)C2=COCCO2)C1C (stereo unspecified),-13,-7,-7.3,6.6%,-0.1,-7
COC(=O)c1ccc(CN(C)S(=O)(=O)c2ccc(C)cc2)o1,1,5,-1.0,-1.9%[38.3 µM],0.4,-10
COc1ccc(NC(=O)COC(=O)CNC(=O)C2CCCCC2)cc1,-2,5,-2.2,2.4%,-0.5,-4
CN(C)/C=N/c1cc(=O)[nH]c(=O)n1CC1CC1,3,8,-1.2,0.0%,0.0,-7
CC(=O)c1ccc(NS(=O)(=O)c2cccc(C)c2)cc1,-2,3,-1.5,3.6%[38.3 µM],-0.1,-7
COc1ccccc1N1CCN(C2CCCN(C(=O)CCc3ccccn3)C2)CC1 (stereo unspecified),3,-1,-1.4,-0.2%,1.2,-41
O=C(NCc1ccc(Cl)cc1)C1CCC(CNc2c(N3CCCC3)c(=O)c2=O)CC1 (stereo unspecified),2,-21,-0.3,0.8%,0.2,-5
CC(C)N1CCN(Cc2cnc(-c3ccccc3)s2)CC1CCO (stereo unspecified),8,5,-0.6,-0.6%,-0.2,-6
O=C(O)c1cnn2c1NC(c1cccs1)CC2C(F)(F)F (stereo unspecified),-4,8,-3.2,-0.6%,0.7,15
O=C(CC[C@H]1O[C@@H](n2ccc(=O)[nH]c2=O)[C@H](O)[C@@H]1O)N[C@H](Cc1ccccc1)C(=O)NCc1ccco1,-6,2,-5.2,0.1%,-0.1,-6
COc1ccc(C(=O)N/C(=C/c2ccccc2F)C(=O)NCCN2CCOCC2)cc1OC,-5,1,-2.2,0.1%,0.0,-28
Cc1ccc2c(C)c(C(=O)NCC(C)(C)N3CCOCC3)oc2c1C,9,2,7.8,-0.7%,2.2,-7
C[C@H](CO)N1C[C@H](C)[C@@H](CN(C)C(=O)CC2CC2)Oc2cc(Br)ccc2S1(=O)=O,4,9,-11,1.7%,-0.5,0
COc1cccc(-c2nc(-c3ccc(Br)o3)no2)c1,10,8,-2.8,3.7%&0.1%,0.9&0.6,3
COc1ccc(/C=C2/C(=O)N=C3SCCN32)cc1,6,2,1.2,1.1%,-0.1,-13
CCc1ccc(CN(C)C(=O)c2cc(=O)c3ccccc3o2)cc1,0,-1,3.2,-0.7%,0.3,1
CC(C)(C)NS(=O)(=O)c1ccc(CCC(=O)N2CCCCC2)cc1,-7,-1,0.6,-1.2%,0.5,9
CC(Sc1nnc(-c2cccnc2)o1)C(=O)NC1CCCC1 (stereo unspecified),4,0,-5.4,2.4%,-0.4,-6
COCCN(C(=O)c1csnn1)C(C(=O)NC1CCCCC1)c1ccc(C)cc1 (stereo unspecified),3,5,-4.1,-2.6%,-0.2,-12
Cc1cc(SCC(=O)OCC(=O)N(CCC#N)c2ccccc2)nc2ccccc12,3,-9,-1.1,0.6%,2.8,7
CCCCn1c(=O)nc2n(-c3ccccc3)c3ccccc3cc-2c1=O,-5,0,-2.7,-1.8%[38.3 µM],3.5,-11
CCN(CC)S(=O)(=O)c1ccc2c(c1)c(=O)c(C(=O)NCc1cccs1)cn2C,-2,-3,0.7,5.3%,2.5,-10
COCCN(CCOC)S(=O)(=O)c1ccc(C(=O)NC2CCN(Cc3ccccc3)CC2)cc1,6,3,-2.5,0.9%,-0.4,-26
Cc1ccc(C(=O)Nc2nccc(-c3cccs3)n2)cc1,0,0,-2.2,-0.6%,-1.2,-9
O=C(COc1ccc(Cl)cc1Cl)N/N=C/c1cccnc1,-12,20,-6.4,0.5%,0.9,-2
N#Cc1ccsc1NC(=O)CN1CCN(S(=O)(=O)c2cc(Cl)ccc2Cl)CC1,-18,-6,-2.2,-0.3%,-0.3,-11
O=[N+]([O-])c1ccc(-c2ccc(/C=N/Nc3nc(N4CCCC4)nc(N4CCCC4)n3)o2)cc1,3,-2,-5.4,?,6.7,0
CCOc1cc2[nH]c(=O)n(CCC(=O)N3CCN(c4ccccc4OC)CC3)c(=O)c2cc1OCC,0,-4,-1.2,3.0%,-0.8,12
COC(=O)CN1C(=S)N(C)C(=O)C1CC(=O)Nc1ccccc1 (stereo unspecified),0,10,-2.0,0.1%,0.8,-17
COc1ccc(NC(=O)Nc2ccc3c(c2)C(=O)N([C@H](C)CO)C[C@H](C)[C@@H](CN(C)S(=O)(=O)c2cccs2)O3)cc1,-3,1,0.6,0.7%,-0.5,-1
Nc1c(C(=O)NCc2ccccc2)c2nc3ccccc3nc2n1-c1ccc2c(c1)OCO2,11,9,-1.2,3.9%[38.3 µM],0.6,-2
C=CCC[C@H](Cc1ccc(F)cc1)C(=O)OC[C@@H](NC(=O)[C@@H](CC=C)CC(=O)N[C@@H](CO)Cc1ccccc1)C(C)(C)C,nt,-15,1.3,11%,1.5,-1

# By substructure, the compounds so far containing a cyano group
SMILES,CtBP-E1A blk,Six1-Eya2 blk,D2 agonist,PINK1 modulator,TRPML1 agonist,D2 potentiator
Cc1cc(SCC(=O)OCC(=O)N(CCC#N)c2ccccc2)nc2ccccc12,3,-9,-1.1,0.6%,2.8,7
N#Cc1ccsc1NC(=O)CN1CCN(S(=O)(=O)c2cc(Cl)ccc2Cl)CC1,-18,-6,-2.2,-0.3%,-0.3,-11

# Next results.
SMILES,CtBP-E1A blk,Six1-Eya2 blk,D2 agonist,PINK1 modulator,TRPML1 agonist,D2 potentiator
Cc1cc(C([O-])=C(C(=S)Nc2ccc(F)cc2)[n+]2ccccc2)c(C)n1-c1ccc(F)cc1,0,-13,-3.6,7.8%,0.8,-30
O=C(c1cc2sccc2n1Cc1ccc(F)cc1)N1CCN(c2nc3ccccc3s2)CC1,-9,-16,-0.1,-1.5%,1.9,-3
Cc1cc(OCC(=O)Nc2nnc(C3CC3)s2)ccc1[N+](=O)[O-],-4,4,-1.8,3.0%,-0.8,-13
CCOc1ccc(NC(=O)c2ccccc2NC(=O)CN2CCCCCC2)cc1,2,1,-4.4,9.3%,2.6,-10
O=C(O)CCCN=C1NC2(CCCC2)Cc2ccccc21,2,-3,-2.1,2.9%,-0.4,-7
CSCC[C@H](NC(=O)OC(C)(C)C)C(=O)N/N=C/c1cc2ccc(C)cc2nc1Cl,-1,-5,-0.4,3.1%,-0.9,-18
Cc1ccc(C)c(NC(=O)CSc2cccc3cccnc23)c1,0,-12,1.7,2.9%,0.2,-2
COc1cccc(CC2(CO)CCCN(Cc3ccc(OC)c(C)c3OC)C2)c1 (stereo unspecified),-19,-16,-4.9,8.5%,1.1,-14
CCc1sc(C(=O)Nc2nc(C)cs2)cc1C,-12,-4,-1.8,4.8%,1.2,-20
Clc1cccc(CNCCNCc2cccc(Cl)c2)c1,0,-3,-3.9,6.0%,-0.7,-19
CC1(Cc2ccc(OC(F)(F)F)cc2)C(=O)Nc2ccc(S(=O)(=O)NC3CCCCC3)cc21 (stereo unspecified),-6,-3,14,2.5%,-0.1,-4
CCC(O)(c1ccccc1)C(CN1CCOCC1)c1ccccc1 (stereo unspecified),-5,-1,-4.8,1.2%,0.6,-16
COc1cccc(CN(C)C(=O)CSc2nc3ccccc3[nH]2)c1OC,-5,10,1.1,3.9%,2.5,-2
O=C1CCN(Cc2ccccc2)S(=O)(=O)c2c(F)cc(F)cc21,3,9,0.7,0.0%,0.5&-0.6,-3
O=C(O)[C@H](Cc1ccccc1)NC(=O)N1CCC(Cc2ccccc2)CC1,nt,4,-3.9,0.5%,1.2,-19
COc1ccc2nc(Nc3nc(C)c(CCC(C)C)c(=O)[nH]3)nc(C)c2c1,-3,-1,-1.4,22%[38.3 µM],-0.1,-10
NC(=O)COc1ncn(-c2ccccc2)n1,-1,10,3.0,0.9%,-0.2,10
c1ccc(-c2nnc3sc(-c4cc5ccccc5o4)nn23)cc1,-1,-3,-1.8,?,5.1,-3
CCCCn1nnc(NC(=S)NC(=O)c2ccc(OCC)c([N+](=O)[O-])c2)n1,-5,-2,-10,-0.7%,0.5,-32
CCOC(=O)[C@H]1[C@H]2COc3ccccc3[C@@H]2N2C(=O)c3c(C)cc(C)cc3NC(=O)[C@@]12C,nt,-7,-1.0,4.7%,0.0,-13
COc1ccc(NC(=O)N2CCN(S(C)(=O)=O)CC2)cc1OC,6,3,-2.7,1.5%[38.3 µM],-0.5,-2
Cc1ccc(C(=O)CSc2nc3ccccc3c(=O)[nH]2)cc1,0,-2,-0.6,-1.2%,0.8,-12
O=C(NCC1CCCO1)c1cccc(Oc2ccc([N+](=O)[O-])cc2Cl)c1 (stereo unspecified),-2,-12,2.8,3.5%,-0.7,5
O=C(Cn1c(=O)oc2ccccc21)Nc1nnc(N2CCCCCC2)s1,-2,0,-6.2,0.6%,-1.1,-5
COc1ccc(C)c2sc(NC(=O)C3CC3)nc12,0,-4,-2.9,1.2%,-0.2,-3
O=Cc1cc([N+](=O)[O-])ccc1N1CCOCC1,-2,-3,1.3,0.4%,0.9,-4
O=C(O)CC(NC(=O)Cc1ccc([N+](=O)[O-])cc1)c1ccc2c(c1)OCO2 (stereo unspecified),-5,1,-3.8,1.7%,1.9,-2
Cc1cccn2c(=O)c3cc(S(=O)(=O)c4ccccc4)c(=N)n(Cc4cccnc4)c3nc12,-1,-1,-2.1,2.7%,1.0,-7
O=C1CC(c2ccco2)Sc2nc3ccccc3n21 (stereo unspecified),-10,-2,0.0,-1.9%,0.7,1
CCCc1nc2nc(C)c(NS(=O)(=O)c3ccc4c(c3)CCCC4)c(=O)n2[nH]1,10,7,4.8,-1.7%,-0.4,1
COc1ccc(C(=O)O/N=C(\N)c2ccc(OC)c(OC)c2)cc1,2,6,?,5.2%,-0.2,14

# High-throughput results from PubChem BioAssay.
